Source: PubChem BioAssay
A1 apoptosis 2 = compounds inhibiting A1, read as caspase activation; caspase activation, % (test concentration not listed); AID 2465; MEF A1-2A-BIM cells, caspase-Glo luminescence, 3 h; percent of clofoctol response, DMSO zero; 24,000 tested, under 10 active; in the data active = caspase activation above about 5.9%;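 note: wells of about 30 µL received 50 nL stock; the first replicate is given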
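Material: mouse embryonic fibroblasts co-expressing A1 and BIM (A1-2A-BIM), primed for A1 dependence / Quantity: 2500 cells/well / Buffer or medium: RPMI-1640 growth medium with 10% FBS / Doses: 50 nL compound per well, pinned / Schedule: 3 h compound exposure at 37 °C / Signal: Caspase-Glo luminescence (DEVD substrate) / Measure: Caspase-3/7 activation, seen as rise in luminescence signal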
* hit, by the source's call. The list is partial, so the mix of outcomes need not match the whole.

no.	Structure	A1 apoptosis 2
1	Cc1noc(C)c1NC(=O)N(C)C[C@H]1Oc2ccc(NC(=O)Nc3cccc4ccccc34)cc2C(=O)N([C@H](C)CO)C[C@H]1C	0.3
2	COc1ccc(NC(=O)N(C)C[C@@H]2OCCCC[C@H](C)Oc3ccc(NS(C)(=O)=O)cc3C(=O)N([C@@H](C)CO)C[C@H]2C)cc1	-1.6
3	C[C@@H]1CN([C@H](C)CO)C(=O)c2cc(NC(=O)Nc3ccc4c(c3)OCO4)ccc2O[C@@H]1CN(C)C	0.9
4	C[C@@H]1CN([C@H](C)CO)C(=O)c2cc(NS(=O)(=O)c3ccccc3)ccc2O[C@@H]1CN(C)C(=O)Nc1cccc2ccccc12	0.0
5	COc1ccc(Br)cc1/C=N/NC(=O)c1ccccc1O	0.1
6	C[C@@H]1CN([C@H](C)CO)C(=O)Cc2cc(NS(=O)(=O)c3ccccc3)ccc2O[C@H]1CN(C)CC1CCCCC1	-0.5
7	Cc1ccc(S[C@]2(C(=O)NCc3ccccc3)CC(=O)N(C3CCCCC3)[C@@H]2c2ccc(CO)cc2I)cc1	-0.3
8	COc1ccc(S(=O)(=O)Nc2ccc3c(c2)C(=O)N([C@H](C)CO)C[C@H](C)[C@@H](CN(C)S(=O)(=O)c2ccc(C)cc2)OCCCC[C@@H](C)O3)cc1	0.0
9	COc1ccc(S(=O)(=O)N(C)C[C@@H]2OCCCC[C@@H](C)Oc3ccc(NC(=O)CCCCCC(=O)Nc4ccccc4N)cc3C(=O)N([C@H](C)CO)C[C@@H]2C)cc1	0.8
10	COc1ccc(NC(=O)Nc2ccc3c(c2)C(=O)N([C@H](C)CO)C[C@@H](C)[C@@H](CN(C)C)O3)cc1	-1.6
11	Cc1noc(C)c1NC(=O)Nc1ccc2c(c1)CC(=O)N([C@H](C)CO)C[C@@H](C)[C@@H](CN(C)S(=O)(=O)c1ccc(F)cc1)O2	-1.0
12	C[C@@H]1CN([C@H](C)CO)C(=O)Cc2cc(NS(C)(=O)=O)ccc2O[C@H]1CN(C)Cc1ccc(C(=O)Nc2ccccc2N)cc1	0.4

From no. 10 to 12, as listed above:
no.	Structure	A1 apoptosis 2
10	COc1ccc(NC(=O)Nc2ccc3c(c2)C(=O)N([C@H](C)CO)C[C@@H](C)[C@@H](CN(C)C)O3)cc1	-1.6
11	Cc1noc(C)c1NC(=O)Nc1ccc2c(c1)CC(=O)N([C@H](C)CO)C[C@@H](C)[C@@H](CN(C)S(=O)(=O)c1ccc(F)cc1)O2	-1.0
12	C[C@@H]1CN([C@H](C)CO)C(=O)Cc2cc(NS(C)(=O)=O)ccc2O[C@H]1CN(C)Cc1ccc(C(=O)Nc2ccccc2N)cc1	0.4

Next compounds follow.
no.	Structure	A1 apoptosis 2
13	C[C@H](CO)N1C[C@H](C)[C@H](CN(C)Cc2ccncc2)Oc2ccc(NS(=O)(=O)c3ccc(F)cc3)cc2CC1=O	1.2
14	C[C@@H]1CN([C@H](C)CO)C(=O)c2cc(NC(=O)c3ccncc3)ccc2O[C@@H]1CN(C)S(=O)(=O)c1ccc(Cl)cc1	0.0
15	Cc1noc(C)c1S(=O)(=O)N(C)C[C@H]1Oc2ccc(NC(=O)C3CC3)cc2CC(=O)N([C@H](C)CO)C[C@H]1C	1.4
16	CNC[C@@H]1Oc2ncc(C#Cc3ccc(OC)c(OC)c3)cc2C(=O)N([C@H](C)CO)C[C@@H]1C	-0.6
17	C[C@H]1CN([C@@H](C)CO)C(=O)Cc2cc(NS(=O)(=O)c3cccs3)ccc2O[C@H]1CN(C)S(=O)(=O)c1ccccc1	-0.5
18	COc1ccc(NC(=O)Nc2ccc3c(c2)C(=O)N([C@H](C)CO)C[C@@H](C)[C@H](CN(C)C(=O)C2CCCCC2)OCCCC[C@H](C)O3)cc1	0.4
19	CNC[C@H]1Oc2ccc(NC(=O)NC3CCCCC3)cc2C(=O)N([C@H](C)CO)C[C@H]1C	-0.8
20	COc1ccc(S(=O)(=O)N(C)C[C@H]2OCCCC[C@@H](C)Oc3ccc(NS(C)(=O)=O)cc3C(=O)N([C@@H](C)CO)C[C@H]2C)cc1	-0.7
21	COc1ccc(S(=O)(=O)Nc2cccc3c2O[C@H](CN(C)C(=O)Nc2cccc4ccccc24)[C@H](C)CN([C@H](C)CO)C3=O)cc1	0.1
22	C[C@@H]1CN([C@H](C)CO)C(=O)c2cccc(NS(=O)(=O)c3cccs3)c2O[C@@H]1CN(C)Cc1ccc(C(=O)Nc2ccccc2N)cc1	-0.7
23	C[C@H](CO)N1C[C@H](C)[C@H](CN(C)C(=O)Nc2ccc(C(F)(F)F)cc2)Oc2c(NC(=O)C3CCCCC3)cccc2C1=O	0.4
24	C[C@H]1CN([C@@H](C)CO)C(=O)c2cccc(NS(C)(=O)=O)c2O[C@@H]1CN(C)S(=O)(=O)c1cccs1	-0.5

no.	Structure	A1 apoptosis 2
25	C[C@@H]1CN([C@H](C)CO)C(=O)Cc2cc(NC(=O)NC3CCCCC3)ccc2O[C@@H]1CN(C)Cc1ccc(C(=O)O)cc1	0.9
26	C[C@@H]1CN([C@@H](C)CO)C(=O)Cc2cc(NC(=O)Cc3ccccc3)ccc2O[C@@H]1CN(C)C(=O)Nc1cccc2ccccc12	0.1
27	C[C@@H]1CCCCO[C@H](CN(C)C(=O)Cc2ccccc2)[C@@H](C)CN([C@@H](C)CO)C(=O)c2cc(NC(=O)Nc3ccccc3)ccc2O1	-0.4
28	C[C@@H]1CN([C@H](C)CO)C(=O)Cc2cc(NS(=O)(=O)c3ccccc3)ccc2O[C@H]1CN(C)S(=O)(=O)c1ccc(Cl)cc1	-0.5
29	C[C@H]1CCCCO[C@H](CN(C)S(=O)(=O)c2ccc(Cl)cc2)[C@@H](C)CN([C@@H](C)CO)C(=O)c2cc(NS(=O)(=O)c3ccccc3)ccc2O1	-0.8
30	C[C@@H]1CN([C@@H](C)CO)C(=O)c2cc(NS(=O)(=O)c3ccc(Cl)cc3)ccc2O[C@@H](C)CCCCO[C@@H]1CN(C)Cc1ccc(C(F)(F)F)cc1	0.6
31	C[C@@H]1CCCCO[C@H](CN(C)C(=O)Nc2ccc(F)cc2)[C@H](C)CN([C@H](C)CO)C(=O)c2cc(NC(=O)Cc3ccccc3)ccc2O1	0.5
32	C[C@@H]1CCCCO[C@H](CN(C)S(=O)(=O)c2ccc(Cl)cc2)[C@@H](C)CN([C@H](C)CO)C(=O)c2cc(NC(=O)CCC(F)(F)F)ccc2O1	1.0
33	Cc1noc(C)c1NC(=O)N(C)C[C@@H]1OCCCC[C@@H](C)Oc2ccc(NC(=O)NC3CCCCC3)cc2C(=O)N([C@H](C)CO)C[C@@H]1C	0.1
34	C[C@H](CO)N1C[C@H](C)[C@@H](CN(C)S(=O)(=O)c2cccs2)Oc2ccc(NC(=O)Cn3cnnn3)cc2C1=O	0.7
35	COc1ccc(S(=O)(=O)Nc2ccc3c(c2)C(=O)N([C@H](C)CO)C[C@@H](C)[C@H](CN(C)Cc2ccc4c(c2)OCO4)OCCCC[C@@H](C)O3)cc1	-1.2
36	C[C@H]1CN([C@@H](C)CO)C(=O)c2cc(NC(=O)C3CCCCC3)ccc2O[C@@H]1CN(C)S(=O)(=O)c1ccccc1	-0.1

no.	Structure	A1 apoptosis 2
37	C[C@H](CO)N1C[C@H](C)[C@H](CN(C)C(=O)Nc2ccc3c(c2)OCO3)Oc2ccc(N(C)C)cc2C1=O	-0.2
38	C[C@@H]1CCCCO[C@@H](CN(C)CC2CC2)[C@@H](C)CN([C@H](C)CO)C(=O)c2cc(NC(=O)c3ccccc3)ccc2O1	-0.1
39	C[C@H]1CN([C@@H](C)CO)C(=O)c2cc(NC(=O)CCN3CCOCC3)ccc2O[C@H]1CN(C)Cc1ccc(C(=O)O)cc1	0.3
40	Cc1noc(C)c1S(=O)(=O)Nc1cccc2c1O[C@H](CN(C)C)[C@H](C)CN([C@H](C)CO)C2=O	-1.1
41	Cc1ccc(S(=O)(=O)N(C)C[C@H]2Oc3ccc(NS(=O)(=O)c4c(C)noc4C)cc3C(=O)N([C@H](C)CO)C[C@@H]2C)cc1	1.5
42	C[C@@H]1CN([C@H](C)CO)C(=O)Cc2cc(NC(=O)Nc3ccc4c(c3)OCO4)ccc2O[C@H]1CN(C)S(=O)(=O)c1ccc(Cl)cc1	0.2
43	CC(=O)N[C@H]1[C@H](O/N=[N+](\[O-])N2CCCC2)OC(CO)[C@@H](O)[C@@H]1O (stereo partly specified)	-0.2
44	COc1ccc(CN(C)C[C@H]2Oc3c(NC(=O)c4ccc(-c5nccs5)cc4)cccc3C(=O)N([C@H](C)CO)C[C@H]2C)cc1	-0.9
45	COc1ccc(NC(=O)N(C)C[C@@H]2Oc3ccc(NC(=O)CCCCCC(=O)Nc4ccccc4N)cc3CC(=O)N([C@@H](C)CO)C[C@H]2C)cc1	0.1
46	C[C@H]1CN([C@@H](C)CO)C(=O)Cc2cc(NC(=O)CCCN(C)C)ccc2O[C@@H]1CN(C)S(=O)(=O)c1cn(C)cn1	0.1
47	C[C@@H]1CCCCO[C@H](CN(C)C(=O)Nc2ccccc2)[C@@H](C)CN([C@H](C)CO)C(=O)c2cc(NC(=O)CCC(F)(F)F)ccc2O1	0.6
48	Cc1noc(C)c1NC(=O)Nc1ccc2c(c1)C(=O)N([C@@H](C)CO)C[C@H](C)[C@H](CN(C)Cc1ccc(C(=O)O)cc1)OCCCC[C@@H](C)O2	0.1

Rewritten field by field: part of the list above.
[43] CC(=O)N[C@H]1[C@H](O/N=[N+](\[O-])N2CCCC2)OC(CO)[C@@H](O)[C@@H]1O (stereo partly specified)
  A1 apoptosis 2 = -0.2
[44] COc1ccc(CN(C)C[C@H]2Oc3c(NC(=O)c4ccc(-c5nccs5)cc4)cccc3C(=O)N([C@H](C)CO)C[C@H]2C)cc1
  A1 apoptosis 2 = -0.9

Some values from the list.
Result of C[C@H]1CCCCO[C@H](CN(C)S(=O)(=O)c2ccc(Cl)cc2)[C@@H](C)CN([C@@H](C)CO)C(=O)c2cc(NS(=O)(=O)c3ccccc3)ccc2O1 in A1 apoptosis 2: -0.8
Result of C[C@H](CO)N1C[C@H](C)[C@H](CN(C)C(=O)Nc2ccc3c(c2)OCO3)Oc2ccc(N(C)C)cc2C1=O in A1 apoptosis 2: -0.2

Remaining list, next part
no.	Structure	A1 apoptosis 2
49	O=C(NCc1nc2ccccc2[nH]1)C1=C[C@H](c2ccc3c(c2)OCO3)C[C@H](OCCCCO)O1	-0.2
50	C[C@@H]1CN([C@H](C)CO)C(=O)c2cc(NS(C)(=O)=O)ccc2O[C@@H]1CN(C)Cc1ccc(Oc2ccccc2)cc1	0.1
51	CNC[C@H]1OCCCC[C@H](C)Oc2ccc(N)cc2C(=O)N([C@H](C)CO)C[C@@H]1C	1.0
52	C[C@@H]1CN([C@@H](C)CO)C(=O)c2cc(NC(=O)Nc3ccc(C(F)(F)F)cc3)ccc2O[C@@H]1CN(C)S(=O)(=O)c1ccccc1	1.2
53	COc1ccc(NC(=O)Nc2ccc3c(c2)C(=O)N([C@H](C)CO)C[C@H](C)[C@@H](CN(C)Cc2ccc4c(c2)OCO4)OCCCC[C@H](C)O3)cc1	0.5
54	C[C@H](CO)N1C[C@H](C)[C@@H](CN(C)Cc2ccccc2)OCCCC[C@H](C)Oc2ccc(NS(=O)(=O)c3ccccc3)cc2C1=O	1.3
55	O=C(CCCCCC(=O)Nc1ccccc1O)N/N=C/c1cc(O)ccc1[N+](=O)[O-]	0.6
56	C[C@H](CO)N1C[C@H](C)[C@@H](CN(C)C(=O)Nc2ccc3c(c2)OCO3)Oc2c(NC(=O)CCCCCC(=O)Nc3ccccc3N)cccc2C1=O	0.5
57	C[C@H](CO)N1C[C@H](C)[C@H](CN(C)Cc2ccc(C(=O)Nc3ccccc3N)cc2)Oc2ccc(NC(=O)Cc3ccccc3)cc2C1=O	2.2
58	O=C(NCc1nc2ccccc2[nH]1)C1=C[C@H](c2ccccc2)C[C@H](OCCCCO)O1	0.4
59	C[C@@H]1CN([C@H](C)CO)C(=O)c2cccc(NC(=O)c3cnccn3)c2O[C@@H]1CN(C)S(=O)(=O)c1cn(C)cn1	-0.6
60	C[C@H](CO)N1C[C@H](C)[C@H](CN(C)Cc2cccc3c2OCCCO3)OCc2cn(nn2)CCCC1=O	-0.3

no.	Structure	A1 apoptosis 2
61	Cc1noc(C)c1NC(=O)Nc1cccc2c1O[C@H](CN(C)S(=O)(=O)c1cn(C)cn1)[C@@H](C)CN([C@H](C)CO)C2=O	-0.7
62	C[C@H](CO)N1C[C@H](C)[C@H](CN(C)S(=O)(=O)c2cn(C)cn2)Oc2ccc(NC(=O)CCCN(C)C)cc2CC1=O	0.8
63	C[C@@H]1CN([C@H](C)CO)C(=O)c2cc(NC(=O)Nc3cccc4ccccc34)ccc2O[C@@H](C)CCCCO[C@@H]1CN(C)C(=O)NC1CCCCC1	1.3
64	C[C@H](CO)N1C[C@H](C)[C@@H](CN(C)C(=O)CCCN(C)C)OCCCC[C@H](C)Oc2ccc(NC(=O)Cc3ccccc3)cc2C1=O	-0.4
65	C[C@@H]1CN([C@H](C)CO)C(=O)CCCn2cc(nn2)CO[C@@H]1CN(C)Cc1ccc2c(c1)OCCN2C	0.0
66	CNC[C@@H]1Oc2ccc(NS(=O)(=O)c3cccs3)cc2CC(=O)N([C@@H](C)CO)C[C@@H]1C	-1.2
67	Cc1ccc(S(=O)(=O)N(C)C[C@H]2Oc3ccc(NS(=O)(=O)c4ccc(Cl)cc4)cc3CC(=O)N([C@H](C)CO)C[C@H]2C)cc1	-1.4
68	C[C@H](CO)N1C[C@H](C)[C@H](CN(C)C(=O)Nc2ccc3c(c2)OCO3)Oc2c(NC(=O)C3CCCCC3)cccc2C1=O	-0.1
69	COc1ccc(S(=O)(=O)Nc2ccc3c(c2)C(=O)N([C@@H](C)CO)C[C@@H](C)[C@H](CN(C)C(=O)CCCN(C)C)OCCCC[C@H](C)O3)cc1	-1.9
70	C[C@H](CO)N1C[C@H](C)[C@H](CN(C)C(=O)Nc2ccccc2)Oc2ccc(NC(=O)C3CC3)cc2C1=O	0.8
71	Cc1noc(C)c1S(=O)(=O)Nc1ccc2c(c1)CC(=O)N([C@H](C)CO)C[C@@H](C)[C@@H](CN(C)Cc1ccncc1)O2	-0.6
